ClpP mod: qHTS Assay for Activators of ClpP; ATP-dependent Clp protease proteolytic subunit (Bacillus subtilis (strain 168)), P80244; purified B. subtilis ClpP, FRET peptide cleavage, 20 min; Potency, µM (top dose mostly 57.5 µM), inactives show top-dose activity change, negative = active; 340,000 tested, 1.9% active; active = well fitted falling curve with a large enough effect; inconclusive = small, poorly fitted or top-dose-only effect; inactive = no such curve, though single readings can be large or run the other way; note: potency is the fitted concentration of half-maximal effect; the source files actives as falling curves though it sought activators and does not explain the sign; nearly all actives have a fitted effect of over 65% in size; many hits overshoot -100%
Target sequence (P80244 whole entry, looked up): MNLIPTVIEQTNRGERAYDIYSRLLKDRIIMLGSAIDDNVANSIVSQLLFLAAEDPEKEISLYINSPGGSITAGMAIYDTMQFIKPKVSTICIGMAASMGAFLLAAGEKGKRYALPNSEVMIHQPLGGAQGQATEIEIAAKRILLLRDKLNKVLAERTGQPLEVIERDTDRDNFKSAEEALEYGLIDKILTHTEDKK
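Purified B. subtilis ClpP, 10 microg/mL final in Tris/HCl pH8 with KCl, BSA, glycerol and Tween-20, cleaved an Abz/nitrotyrosine-quenched decapeptide. Fluorescence (ex 320, em 430) was read at 0 and 20 min at room temperature. Delta was normalized to 5.8 microM ADEP and DMSO/no-enzyme controls.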
Menin-MLL FL inh: menin-MLL binding inhibition, fluorescein peptide; Fluorescence polarization, fluorescein-MLL peptide displacement from menin; FP activity change, % at 61.4 µM; 290,000 tested, under 10 active; inconclusive = falling polarisation curve, or a change in total fluorescence; inactive = total fluorescence flat and polarisation flat or rising; no compound was filed as active; the % refers to the polarisation; negative = inhibition;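 note: % of control where 0% means no effect; inhibitors lower the polarisation; unlabelled MLL peptide was the positive control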
CtBP-E1A inh: inhibitors of CtBP/E1A interaction | 340,000 tested, 0.49% active | activity change, % (test concentration not listed) | AlphaScreen GST-E1A/His-CtBP binding, 1536-well; hits give low values; control for the full effect not named in the record; in the data active means activity change below about -65%; inconclusive means about -30% to -65%; inactive means above about -30%; note: % is set by controls: 0 for no effect and ±100 for the full control effect; compound concentration not given in the record
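AlphaScreen with 125 nM GST-E1A and 125 nM His-CtBP (5X stocks) in Tris pH 8.0, 300 mM NaCl, BSA, Tween 20, TCEP. Compounds preincubated 2 h at 37 deg C, then glutathione donor/nickel acceptor beads added for 1 h at 37 deg C in dark.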
gsp antag: gsp mutant antagonism; gsp-mutant cells, cAMP HTRF, 30 min; control for the full effect not named in the record; Potency, µM (series often up to 76.9 µM), inactives show at the top dose activity change, negative = inhibition, most hits filed as inhibitors; 340,000 tested, 0.4% active; AID 624288; active = falling curve of any shape with a large fitted effect; inconclusive = falling curve, mostly with a smaller effect; inactive = flat or rising curve; cell line not stated here;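 note: intracellular cAMP measured with PDE inhibitor Ro 20-1724 present during compound exposure; potency is the fitted concentration of half-maximal effect; % is set by controls: 0 for no effect and ±100 for the full control effect; nearly all actives have a fitted effect of over 65% in size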
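HTRF cAMP measurement after 30 min RT detection following 30 min, 37C compound treatment alongside […] (added as 300 uM solution) in G418-selected cells seeded at 2000/well and grown 16–24 h.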
TRPV1 PAM: human TRPV1 potentiation. TRPV1-expressing cells, Fluo-8 calcium influx, capsaicin EC20 potentiation; host cell line not named in the record; control for the full effect not named in the record. potentiation, % at 8.33 µM. 320,000 tested, 0.02% active. AID 540277; active means potentiation above 80%; inconclusive means 30% to 80%; inactive means below 30%; note: 0% is about no effect
Target sequence (Q8NER1 whole entry, looked up): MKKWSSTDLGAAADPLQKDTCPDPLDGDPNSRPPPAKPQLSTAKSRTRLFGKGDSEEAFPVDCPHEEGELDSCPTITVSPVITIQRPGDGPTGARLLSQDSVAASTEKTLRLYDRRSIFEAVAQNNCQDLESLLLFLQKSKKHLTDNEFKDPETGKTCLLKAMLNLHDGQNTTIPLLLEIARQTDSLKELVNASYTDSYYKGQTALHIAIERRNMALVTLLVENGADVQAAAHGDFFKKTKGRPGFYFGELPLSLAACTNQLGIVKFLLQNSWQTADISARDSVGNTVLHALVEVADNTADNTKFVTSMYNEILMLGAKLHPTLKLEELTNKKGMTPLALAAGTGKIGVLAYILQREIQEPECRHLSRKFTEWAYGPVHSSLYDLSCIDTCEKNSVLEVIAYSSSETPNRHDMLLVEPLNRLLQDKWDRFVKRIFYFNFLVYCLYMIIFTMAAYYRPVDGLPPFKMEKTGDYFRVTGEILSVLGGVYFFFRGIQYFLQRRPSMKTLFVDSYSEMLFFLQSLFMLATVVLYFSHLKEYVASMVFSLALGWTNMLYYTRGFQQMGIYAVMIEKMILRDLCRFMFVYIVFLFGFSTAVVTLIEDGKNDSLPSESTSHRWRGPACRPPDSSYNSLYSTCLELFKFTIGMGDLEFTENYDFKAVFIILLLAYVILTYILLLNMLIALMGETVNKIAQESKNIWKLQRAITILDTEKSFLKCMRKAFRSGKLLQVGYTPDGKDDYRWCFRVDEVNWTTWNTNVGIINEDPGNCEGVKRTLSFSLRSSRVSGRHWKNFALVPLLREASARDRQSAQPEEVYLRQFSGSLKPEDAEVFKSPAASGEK
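Fluo-8 calcium influx in TRPV1-expressing cells, kinetic read (ex 480/em 520 nm). Compound added and read 3 min for agonist activity, followed by capsaicin at EC20 final and 2 min further read for enhancement.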
gsp ag: gsp mutant agonism | Potency, µM (doses to about 76.9 µM), inactives show at the highest dose activation (cAMP increase), hits mostly activators | 340,000 tested, 0.13% active | gsp mutant cells, cAMP HTRF, 30 min; control for the full effect not named in the record; active = well fitted activation curve with a large enough effect; inconclusive = small, poorly fitted or top-dose-only effect, or another doubt; inactive = no such curve, though single readings can be large or run the other way; cell line not stated here;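 note: phosphodiesterase inhibitor Ro 20-1724 added with compounds to block cAMP breakdown; potency is the fitted concentration of half-maximal effect; nearly all actives have a fitted effect of over 60% in size; about a fifth of the inactives were tested at one dose only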
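Cells in DMEM/10% FBS with G418 were pretreated with compounds in DMSO plus […] (300 uM stock) for 30 min at 37C. cAMP was measured by HTRF (cAMP-d2 plus anti-cAMP antibody-K) after 30 min at room temperature.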
Sfp PPTase inh: Sfp phosphopantetheinyl transferase inhibition; Q9F4F7; Biochemical Sfp PPTase activity, qHTS; Potency, µM, inactives show max response, negative = inhibition, most hits filed as inhibitors; 310,000 tested, 3.5% active; AID 1490; active = well fitted inhibition curve with a large enough effect; inconclusive = small, poorly fitted or top-dose-only effect, or another doubt; inactive = no such curve, though single readings can be large or run the other way;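 note: the enzyme is Sfp with the accession as filed and its product quenches rhodamine fluorescence; potency is the fitted concentration of half-maximal effect; 0% = enzyme reaction without inhibitor and -100% = no enzyme wells; top concentration of the series not given in the record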
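Fluorescence-quenching assay: 15 nM Sfp-PPTase preincubated 15 min at room temperature with compound, then 5 uM rhodamine-CoA and 12.5 uM BHQ-2-labelled YbbR peptide added. Fluorescence (ex 525/em 598 nm) read at start and after 30 min; difference gives rate.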
The depositor's hits bear a star; ? = inconclusive; nt = not tested or not shown; & = joins results of further samples; [ ] = another dose, or the depositor's remark.

SMILES	ClpP mod	Menin-MLL FL inh	CtBP-E1A inh	gsp antag	TRPV1 PAM	gsp ag	Sfp PPTase inh
CC(=O)OC[C@H]1O[C@H](C/C=N/OC[C@@H](O)[C@H]2O[C@@H]3OC(C)(C)O[C@@H]3[C@H]2O)C=C[C@@H]1OC(C)=O	nt	4.9	nt	nt	-5	nt	-9%
CC(OC(=O)CNS(=O)(=O)c1ccc(C#N)cc1)C(=O)Nc1cccc(C#N)c1 (stereo not drawn)	0.8%	nt	9	13%	1	-31%	nt
O=C(CSc1nc2ccccc2c(=O)n1-c1ccccc1F)Nc1ccc2c(c1)CCC2	-5.0%	3.0	nt	-5%	18	-75%	27%
O=Cc1[nH]c2ccccc2c1N(C(=O)CCl)c1ccccc1	nt	8.2	-3	-5%	2	4%[15.4 µM]	9%
COc1ccc(OC)c(NC(=O)COC(=O)c2ccc(-n3cnnn3)cc2)c1	-4.6%	-0.7	-9	-13%	20	-23%	2%
CCCC(=O)N1CCN(Cc2nc3cc([N+](=O)[O-])ccc3n2C)CC1	-0.3%	-6.9	1	-5%	0	-2%	0%
CCCCn1c(N)c(N(CCOC)C(=O)COC(=O)CNC(=O)c2ccc(Cl)c(Cl)c2)c(=O)[nH]c1=O	-1.1%	nt	35	13%	nt	?	nt
CC(NC(=O)c1ccc(N(C)C)cc1)c1ccc(F)cc1 (stereo not drawn)	nt	-0.1	5	-1%	-9	-19%	10%
CC(=O)NN1C(=O)c2ccc(Oc3ccc([N+](=O)[O-])cc3)cc2C1=O	-1.8%	-1.9	-9	-7%	8	-26%	13%
NS(=O)(=O)c1ccc(NC(=O)c2cccc(Cl)c2)cc1	nt	-0.4	-8	5%	-16	2%[15.4 µM]	10%
COc1ccccc1N1CCN(Cc2ccc(Br)o2)CC1	-4.4%	6.9	-6	-7%	24	45%	?
C=CC[C@H](CC(=O)N(CCO)Cc1ccccc1)C(=O)N[C@@H](COC(=O)[C@@H](CC=C)Cc1ccc(F)cc1)Cc1c[nH]c2ccccc12	1.2%	nt	-27	-21%	nt	nt	nt
O=C(O)C1CC=CCC1C(=O)Nc1ccc(N2CCN(Cc3ccccc3)CC2)cc1 (stereo not drawn)	-6.5%	-3.7	15	10%	-6	3%	-7%
C[C@@H]1CCC(=O)N(C[C@@H](C)CSc2ccccc2)CC1	-0.5%&-1.4%	1.8	nt	6%	-7	-8%	8%
C=CCOc1ccc(C(=O)Nc2ccccc2C(=O)NCc2cccnc2)cc1	-2.3%	1.9	5	1%	-3	12%[15.4 µM]	-7%
COC(=O)N/N=C(\CCC(=O)O)c1cccs1	nt	1.9	-10	6%	-10	2%[15.4 µM]	-12%
O=C(CN1CCCC1)Nc1cc(C(F)(F)F)ccc1Cl	-23%	-5.8	7	14%	-12	-5%[15.4 µM]	10%
CCc1c(C)sc(NC(=O)c2cc(C(C)C)on2)c1C#N	0.2%	3.1	11	-11%	-4	1%	-19%
Cn1ccnc1Sc1nc2ccccc2nc1NS(=O)(=O)c1ccccc1	-3.6%	?	1	1%	-21	?	50µM*
Cc1cccc(N2C(=O)CC(N3CCN(C(=O)c4ccccc4)CC3)C2=O)c1 (stereo not drawn)	1.1%	2.5	2	6%	21	-2%	8%
COc1cc(/C=C2\SC(=S)N(CCC(=O)NCCc3ccccc3)C2=O)cc(OC)c1OC	nt	?	-17	nt	26	0%[15.4 µM]	-21%
Cc1ccc(C(O)(C(=O)NNc2ccccn2)c2ccc(C)cc2)cc1	nt	-1.3	0	-6%	3	-1%[15.4 µM]	-12%
CC[C@@]1(C(=O)OC)N[C@H](CN(C)C(=O)c2ccc(C)cc2)[C@@H]2C(=O)N(C)C(=O)[C@@H]21	0.7%	nt	6	2%	nt	nt	nt
O=C(NC(=S)Nc1cccc2cnccc12)c1ccccc1	nt	-2.6	0	4%	-9	17%	45µM*
O=C(O)CC(Cc1ccc(Cl)cc1)C(=O)Nc1cc(Cl)ccc1Cl (stereo not drawn)	nt	0.4	0	-10%	-2	-39%[inhibitor]	20%
CCOC(=O)Cn1c(=O)n(Cc2ccco2)c(=O)c2ccc(C(=O)NC3CCCC3)cc21	-2.2%	4.4	4	-22%	5	23%	-19%
Cc1nnc(SCC(=O)Nc2ccc([N+](=O)[O-])cc2)n1CC1CCCO1 (stereo not drawn)	nt	nt	11	-5%	7	-5%[15.4 µM]	10%
O=C(NN1CCOCC1)c1cccc(Br)c1	nt	nt	5	-6%	nt	11%[15.4 µM]	nt
COc1ccc(OC)c(C(C)NS(=O)(=O)c2cccs2)c1 (stereo not drawn)	2.3%	nt	4	10%	8	6%	nt
O=C(NCc1ccco1)c1nc(-c2ccc(F)cc2)no1	nt	-5.1	10	2%	-5	1%[15.4 µM]	0%
COc1ccc(C2C(C(C)=O)=C(C)N=c3s/c(=C/c4ccc5c(c4)OCO5)c(=O)n32)cc1 (stereo not drawn)	nt	?	nt	nt	5	nt	-23%
Cc1ccc(-n2c(SCC(=O)N/N=C/c3ccccc3C(=O)O)nnc2-c2ccccc2)cc1	nt	3.1	-13	-7%	29	-12%[15.4 µM]	10%
CCOc1cc(C(=O)N(CC)CC(=O)Nc2c(F)cccc2F)ccc1OCC(=O)N1CCOCC1	?	nt	5	6%	3	-33%[inhibitor]	nt
O=C(CN1CCCCCC1)NN(Cc1ccccc1)c1ccccc1	0.1%	0.5	0	-26%	-11	-18%[15.4 µM]	?
Cc1n[nH]c(=S)n(/N=C/c2cccc([N+](=O)[O-])c2)c1=O	nt	1.2	-66*	-3%	nt	-1%[15.4 µM]	-12%
O=c1oc2ccccc2c2c1ncn2C1CCCCC1	0.2%	1.4	-10	3%	6	?	3%
COC(=O)CCC(=O)Nc1ccc(NC(=O)CCC(=O)OC)cc1	0.5%	2.6	3	-12%[15.4 µM]	19	20%	-4%
Cc1ccc(C(=O)CSc2nnnn2Cc2ccccc2)cc1C	nt	3.3	25	-18%	-12	10%[15.4 µM]	3%
COc1ccc(Cl)cc1NC(=O)CC1S/C(=N/N=C2CCCCCC2)NC1=O (stereo not drawn)	-1.1%	nt	4	-19%	-7	30%	9%
N#CCSc1nnc(N)s1	-1.8%	-0.1	6	5%	?	-3%	-2%
Cc1nc2ncnn2c(C)c1C/C=C/c1ccccc1	nt	-0.7	8	8%	-15	13%[15.4 µM]	19%
Cc1cccc(CC(=O)Nc2ccon2)c1	nt	2.6	0	8%	6	-43%[inhibitor]	12%
Cc1ccc2c(C)nc(Nc3nc(CSc4nnc(C)s4)cc(=O)[nH]3)nc2c1	-0.4%	1.6	-4	1%	-7	3%	38%[activator]
C[C@H]1CN([C@@H](C)CO)S(=O)(=O)c2ccc(Br)cc2O[C@@H]1CN(C)C(=O)C1CCOCC1	1.2%	nt	8	nt	nt	-117%[inhibitor]	nt
O=C(c1ccccc1)c1cccs1	nt	0.2	1	4%	-12	1%	-10%
O=C(OCc1c(-c2ccccc2)ncc2ccccc12)c1ccco1	-2.2%	nt	-1	-18%	nt	nt	nt
CCCNC(=O)c1cc(-c2ccco2)on1	-4.5%	-4.2	4	-3%	20	-5%	9%
Cc1ccc(-n2c(N)c(S(=O)(=O)c3ccccc3)c3nc4ccccc4nc32)cc1	nt	0.1	6	?	-5	-16%[15.4 µM]	-11%
CC(CC(C)C(=O)Nc1ccccc1C(C)(C)C)C(=O)O (stereo not drawn)	0.6%	-2.5	6	1%	9	-19%	10%
O=C(NC1CC1)c1sc2cc([N+](=O)[O-])ccc2c1Cl	0.7%	-1.4	8	-2%	-9	3%	0%

Remaining list, next part.
SMILES	ClpP mod	Menin-MLL FL inh	CtBP-E1A inh	gsp antag	TRPV1 PAM	gsp ag	Sfp PPTase inh
CCCOc1ccc(C(O)(CCN2CCCCC2)c2ccccc2OC)cc1 (stereo not drawn)	-2.3%	-0.8	-13	15%	-8	22%	2%
Cc1ccc(CNC(=O)C2CC(=O)N(CCC(C)C)C2)cc1 (stereo not drawn)	0.6%	3.2	nt	14%	-15	0%	2%
COC(=O)c1ccc(NC(=S)N2CCN(Cc3ccccc3)CC2)cc1	0.1%	-2.0	-6	-9%	?	-21%	3%
O=C(c1cnn2ccccc12)N1CCCc2ccccc21	-0.4%	2.2	3	9%	9	?	-7%
Cc1ccc(Nc2n[nH]c(C)c2[N+](=O)[O-])c(C)c1	2.2%	-1.0	-10	-28%	-1	-66%[inhibitor]	14%
COc1ccccc1NC(=O)C(C)OC(=O)CSCC(=O)Nc1cc(C)on1 (stereo not drawn)	0.3%	nt	nt	0%	4	8%	nt
O=C(Nc1ccc(CN2CCOCC2)cc1)c1ccco1	nt	-2.0	-2	14%	16	-29%	7%
COc1ccc(NC(=O)CSc2nnc(-c3cc(C)[nH]n3)n2N)cc1	0.0%	nt	0	0%	1	-44%[inhibitor]	9%
O=C(Nc1ccc(S(=O)(=O)Nc2ccccn2)cc1)C(F)(F)F	-0.7%	4.6	0	13%	5	5%[15.4 µM]	8%
COc1cccc(-n2c(=O)n(Cc3ccccc3)c(=O)c3[nH]cnc32)c1C	nt	6.1	4	7%	-2	6%[15.4 µM]	0%
COc1ccc(NS(=O)(=O)c2ccc3c(c2)NC(=O)CO3)c(OC)c1	0.6%	nt	-3	20%	16	14%	11%
COc1cccc(-c2noc(-c3cccnc3)n2)c1	0.5%	-1.0	17	-1%	0	-6%[15.4 µM]	8%
Cc1c(C(=O)Nc2ccccc2C(=O)N2CCOCC2)cccc1[N+](=O)[O-]	1.0%	-0.5	5	-10%	8	-5%	-14%
COc1cccc(NC(=O)CN(C)C(=O)CN2C(=O)NC(C)(c3ccc(C)cc3)C2=O)c1 (stereo not drawn)	0.6%	nt	2	7%	-9	42%	nt
Cc1cc(=O)oc2cc(OCC(=O)c3ccc4c(c3)NC(=O)CO4)ccc12	nt	0.9	nt	-1%	2	-1%[15.4 µM]	-9%
O=C(OCc1cc(=O)n2ccsc2n1)c1ccc(O)cc1O	-5.5%	nt	0	-10%	8	-4%	nt
CCOC(=O)N1CCN(C(=O)Cc2ccc(Cl)cc2)CC1	1.0%	-0.3	2	4%	-7	1%	19%
Cc1nc(NCCc2ccc(Cl)cc2)c2nnn(Cc3ccccc3)c2n1	-3.5%	1.5	nt	18%	16	-8%	1%

From PubChem BioAssay
